Screens (PubChem)
Yeast UUG start: yeast start codon fidelity modulation. S. cerevisiae UUG-firefly luciferase reporter, luminescence/redox ratio. activity score, % at 18.7 µM. hit rate 0.13% among 350,000. AID 602363;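 active = replicate mean at a twofold rise or more, about +100% in these data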;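 note: firefly luciferase made from a UUG start codon reports start codon fidelity; reporter light over untreated wells divided by growth signal over untreated wells; some hits fall short of that in this replicate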
MT1-MMP act inh: MT1-MMP (human) activation inhibition. P50281. HT1080 RFP-PRO-GFP cells, GFP/RFP ratio fluorescence, overnight; percent of plate control window, DMSO zero. GFP/RFP ratio change, % at 20 µM. hit rate 0.061% among 360,000. AID 651647;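 active = GFP/RFP ratio change of at least 30% with cell ATP level not reduced by more than half and red fluorescence within 50% of control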; note: strong numbers were not always called active
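Read-out: GFP/RFP fluorescence ratio; Test system: RFP-PRO-GFP reporter HT1080 cells; Compound dosing: single-point 20 µM compound, 1% DMSO; Times: overnight compound exposure at 37 °C.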
PABP FP inh: PABP-poly(A) binding inhibition; P11940; PABP-poly(A) RNA binding, fluorescence polarization; inhibition, % at 35 µM; hit rate 1% among 290,000; AID 2014;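 active = 50% or more with normal probe brightness, or confirmed in later tests; inconclusive = above 50% with abnormal brightness, or retests that disagree; inactive = below 50% or failed in later tests; about a fifth of its hits are not listed in these tables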;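 note: calls also rest on retests at 20 µM and on dose response follow-up; controls were probe without protein and protein plus probe with vehicle; some compounds called inactive have numbers as strong as hits; many hits fall short of the cut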
Env fusion inh: inhibitors of HIV Env-mediated cell fusion; HeLa-JRFL Env/CEM21 cell fusion, luciferase; inhibition, % at 12.3 µM; hit rate 1.1% among 360,000;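 active = mean replicate inhibition score of at least 50 and every replicate individually at or above 50; inconclusive = only one of the two criteria met; inactive = mean below 50 and not all replicates reaching 50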;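 note: 0% = plate neutral controls and 100% = maraviroc near 300 nM; one replicate is shown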
Rce1 inhib: blocks yeast Ras-converting enzyme | Q03530 | yeast membranes, quenched prenylated peptide cleavage fluorescence | calls only | hit rate 0.27% among 290,000 | AID 2563;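 active = fall in fluorescence gain of 50% or more versus controls, with final raw signal at or below 3038400; inconclusive = same 50% fall but final raw signal above 3038400; inactive = fall in fluorescence gain under 50%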;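 note: plate controls were neutral control wells for no effect and wells lacking membranes for full effect; tested at 10 µM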
Target sequence (Q03530 whole entry, looked up): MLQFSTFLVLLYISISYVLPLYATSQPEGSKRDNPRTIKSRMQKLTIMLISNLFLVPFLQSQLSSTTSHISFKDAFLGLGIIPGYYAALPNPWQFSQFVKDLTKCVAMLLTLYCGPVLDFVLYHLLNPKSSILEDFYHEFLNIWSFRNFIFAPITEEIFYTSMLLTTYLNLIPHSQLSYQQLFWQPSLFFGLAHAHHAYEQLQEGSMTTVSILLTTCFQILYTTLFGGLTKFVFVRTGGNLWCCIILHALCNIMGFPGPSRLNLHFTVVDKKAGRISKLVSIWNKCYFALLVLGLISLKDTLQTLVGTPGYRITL
eIF4H FP inh: inhibitors of RNA binding by human eIF4H. Q15056. eIF4H fluorescence polarization binding assay. inhibition, % at 35 µM. hit rate 0.94% among 290,000. AID 2012;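 active = 50% or more with normal probe brightness, or confirmed in later tests; inconclusive = above 50% with abnormal brightness, or retests that disagree; inactive = below 50% or failed in later tests; about a fifth of its hits are not listed in these tables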;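 note: calls also rest on retests at 20 µM and on dose response follow-up; 0% = protein and probe with vehicle and 100% = probe without protein; strong numbers were not always called active; many hits fall short of the cut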
CSC inhib: cancer stem cell inhibition; cancer stem cell-like cells viability, luminescence; hit rate 1.1% among 300,000; inhibition, % at 7.5 µM;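 active = mean at 75% or more and at least half the replicates too; inconclusive = mean and replicates disagree; tested in HMLE shEcad cells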;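 note: 0% = median of negative and 100% = median of positive control wells; the first replicate is given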
eIF4H FP inh retest: recorded beside eIF4H FP inh, whose call it bears; inhibition, %; compound at 20 µM; confirmation average;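 mean of two retest wells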
PABP FP inh retest: recorded beside PABP FP inh, whose call it bears; inhibition, %; compound at 20 µM; confirmation repeats;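 mean of two retest wells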
MT1-MMP act inh RFP: second read-out of MT1-MMP act inh, no call of its own (marks repeat the call); RFP signal change, %; measured here: RFP expression control read;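 0 = vehicle wells; hits needed this value within 50% of zero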
Active calls of the source: *; i = inactive; u = inconclusive; x = not tested or not shown; & = joins results of further samples.

SMILES | Yeast UUG start | MT1-MMP act inh | MT1-MMP act inh RFP | PABP FP inh | Env fusion inh | Rce1 inhib | eIF4H FP inh | CSC inhib | others
CCOc1cccc(C2CC(=O)Nc3cc(OC)c(OC)cc32)c1 (stereo not drawn) | 8 | 1 | -3 | 6 | -19 | x | -4 | -16
Cc1ccc(OCCCC(=O)N(C)CC(=O)Nc2ccccc2Br)cc1 | x | 2 | -3 | x | -1 | i | x | 2
CCOC(=O)c1cncc(NC(=O)c2ccccc2)c1 | -13 | 2 | -1 | -6 | x | i | 2 | -13
C=C[C@]1(C)C=C2C(=O)C[C@H]3C(C)(C)CCC[C@]3(C(=O)O)[C@@]2(O)CC1 | -10 | 2 | 4 | x | 8 | x | x | x
CCCCCCSc1nc(O)c(C2OC(=O)c3c2ccc(OC)c3OC)c(=O)n1CC (stereo not drawn) | 3 | -3 | 0 | -2 | x | i | 0 | 11
CCN1C(=O)[C@H]2[C@@H](c3ccc(-c4cccc(Cl)c4)cc3)N[C@@](CC(C)C)(C(=O)OC)[C@H]2C1=O | -13 | -4 | -4 | x | -27 | x | x | x
COc1cc2c(cc1OC)CN(C(=O)c1ccc3nc[nH]c3c1)CC2 | x | -8 | -12 | -3 | 8 | i | -2 | 53
COc1ccc(/C=N/n2c(SC)nnc2-c2ccccc2)c(OC)c1OC | -6 | 6 | 2 | -4 | x | x | 7 | x
Cc1ccccc1CNC(=O)c1ccc2nc([C@@H]3O[C@H](CO)[C@H](O)[C@H](O)[C@H]3O)[nH]c2c1 | 0 | 1 | -1 | x | -10 | x | x | x
CCC(c1nnnn1C1CCCC1)N(Cc1cccs1)Cc1cc2cccc(C)c2[nH]c1=O (stereo not drawn) | -13 | -29 | -25 | 8 | x | x | 4 | 39
CCOc1cc(/C=C2/C(=O)N(c3ccccc3)N=C2C)ccc1OC(=O)c1cccs1 | x | 12 | 2 | 7 | x | i | 7 | -12
O=C(Nc1ccc(N2CCN(Cc3ccccc3F)CC2)cc1)c1ccc([N+](=O)[O-])o1 | 26 | -20 | -31 | 3 | -169 | i | 4 | 103*
CC(C)=CCC/C(C)=C/Cc1c(O)ccc(C(=O)/C=C/c2ccc(O)cc2)c1O | -8 | -2 | -6 | 0 | x | i | 5 | 121*
NC(=O)c1cc(NC(=O)c2cc(Br)c(Br)s2)cc(C(N)=O)c1 | x | 9 | 3 | 2 | 0 | i | 4 | x
CC(C)C#Cc1ccc2c(c1)O[C@@H](CN(C)C(=O)c1cnccn1)[C@@H](C)CN([C@@H](C)CO)S2(=O)=O | 20&3&-3 | -1 | 1 | x | 14 | x | x | x
Cc1nn(Cc2ccccc2)c(C)c1NC(=O)c1cc2nc(-c3ccco3)cc(C(F)(F)F)n2n1 | 2 | -1 | -6 | 10 | x | i | -5 | 2
O=C(Cn1nnc(-c2cccc(C(F)(F)F)c2)n1)N1CCCCCC1 | -1 | 3 | -4 | -8 | x | i | -4 | -2
CCc1ccc(OC(C)c2nnc(SCC(=O)Nc3ncccc3C)n2C)cc1 (stereo not drawn) | 0 | -2 | -6 | -6 | 7 | i | -12 | -12
NC(=O)N/N=C/c1cc(Br)ccc1OC(=O)c1ccccc1 | x | 4 | 3 | -6 | -16 | x | -7 | -9
COc1ccc(S(=O)(=O)CCC(=O)N2CCN(c3ccccc3F)CC2)cc1 | x | -4 | -3 | 6 | 3 | i | -6 | 7
C[C@H](N)c1nnc(SCC(=O)c2ccc(Cl)cc2)o1 | -26 | 7 | 2 | 10 | x | i | -4 | x
COc1ccc(CCC(=O)Nc2ccc(-c3noc(-c4ccc(OC)c(OC)c4)n3)cc2)cc1 | -12 | 3 | -2 | 13 | -132 | i | 8 | -4
Cc1ccc2c(n1)CC(C)(C)CC2=O | -11 | -1 | 2 | 11 | -31 | i | -17 | -1
CC(C)C(=O)Nc1ccc(NC(=S)NC(=O)c2ccccc2F)cc1 | 0 | 2 | -3 | -1 | 11 | i | -7 | -5
O=S(=O)(NCC(Nc1ccccc1)c1ccccc1)c1ccc(Cl)cc1 (stereo not drawn) | -17 | -1 | -13 | 10 | 98* | i | 4 | 21
(next part)
SMILES | Yeast UUG start | MT1-MMP act inh | MT1-MMP act inh RFP | PABP FP inh | Env fusion inh | Rce1 inhib | eIF4H FP inh | CSC inhib | others
Cc1ccc(-c2cc(C(F)F)nc(NCc3cccs3)n2)cc1 | -11 | 2 | -7 | -11 | -72 | i | 1 | 19
O=C(CCNC(=O)c1ccccc1Cl)NCC(c1ccc(F)cc1)N1CCOCC1 (stereo not drawn) | 6 | -3 | 0 | x | 2 | i | x | -14
COc1ccc(C(C(=O)NC2CCCCC2)N(C(=O)c2sc(C)nc2C)c2ccccc2)cc1 (stereo not drawn) | 68 | -3 | -2 | -25 | 10 | i | -1 | -14
Cc1cc(C(=O)COC(=O)c2csc3c2CCCC3)c(C)n1C | -5 | 1 | 0 | 13 | -30 | x | -5 | 20
O=C(NCc1ccc2c(c1)OCO2)Nc1cccc(Cl)c1 | -9 | -1 | -3 | -2 | -14 | i | 0 | 6
CCN1CCN(c2nc(-c3ccccc3)c3ccccc3n2)CC1 | -13 | -6 | 0 | 2 | 8 | i | 7 | -1
FC(F)Oc1ccc(NC(=S)NCc2cccnc2)cc1 | x | -1 | -2 | 14 | -6 | i | -3 | x
CC(C)NC(=O)CSc1nnc(C2CC2)n1-c1ccccc1 | -3 | 3 | 3 | -3 | x | i | 6 | -13
Cc1cc(=O)[nH]c2ccc(S(=O)(=O)Nc3ccccc3)cc12 | -13 | -1 | 1 | -7 | -29 | i | -8 | 3
CC(C)C(=O)Nc1ccc(C(=O)N/N=C/c2cc(Br)cc(Br)c2O)cc1 | x | -12 | -14 | -25 | 35 | i | -2 | 84*
Cc1ccc(C)c(NC(=O)CN(C)C(=O)c2ccccc2OCc2ccccc2Cl)c1 | 16 | -7 | -8 | x | 20 | i | x | -7
O=C(NC1CCCCCC1)c1cccnc1Sc1ccc(Cl)cc1 | 5 | -1 | 3 | -14 | -9 | i | -4 | -10
Cc1ccc(C(C(=O)NC2CCCCC2)N(CC2CCCO2)C(=O)CNC(=O)c2cccs2)cc1 (stereo not drawn) | 9 | -2 | -2 | -5 | x | i | -10 | -23
Cc1nn(C(=O)CCCn2cc([N+](=O)[O-])cn2)c(C)c1Cl | x | 4 | 4 | -1 | 13 | i | 0 | -16
CSc1c(CC(=O)NCCCO)n(Cc2ccccc2)c2ccccc12 | -11 | -2 | 1 | -10 | 6 | i | 14 | -4
O=S(=O)(Cc1ccccc1Cl)c1ncn[nH]1 | -8 | -1 | 4 | -4 | -15 | x | 2 | -7
CCN(c1ccc(NC(=O)CSc2ccc3c(c2)OCCO3)cc1)C(C)C | -29 | 2 | -5 | x | 16 | x | x | -5
COc1ccc(Cc2noc(CN(C)Cc3ccc(-n4cccn4)cc3)n2)cc1OC | 3 | 2 | -16 | 12 | 8 | i | -9 | -1
COc1ccc(C2/C=C\CN(C(=O)Oc3ccc(C(F)(F)F)cc3)CC(=O)N2Cc2ccc(F)cc2)cc1 (stereo not drawn) | -7 | 5 | -2 | 10 | 11 | i | 4 | 15
CCc1cc2c(=O)[nH]c(CC(N)=O)nc2s1 | -8 | 0 | 1 | 4 | 2 | i | -3 | 0
CCOc1cc(C(=O)CSc2nnc(CNc3ccc(Cl)cc3)o2)ccc1NC(=O)CC | -9 | 0 | -5 | -5 | x | i | -2 | 5
CC[C@]12c3[nH]c4cc(CCC(=O)N(C)C)ccc4c3CCN1C(=O)[C@@H](CC(=O)NCc1ccc(OC)c(OC)c1)C[C@@H]2C(=O)N1CCN(C(=O)C2CC2)CC1 | 10 | 0 | 5 | x | 14 | x | x | x
Cc1cc(C)c(S(=O)(=O)c2ccc(Cl)cc2)c(=O)[nH]1 | -4 | -4 | 2 | -4 | 4 | i | -5 | -7
O=C1N=C(N2CCOCC2)S/C1=C\c1ccncc1 | -24 | -8 | -2 | -4 | 16 | i | 0 | 6
CN(C)CCNc1oc(/C=C/c2ccccc2)nc1C#N | -9 | 4 | 4 | 2 | 8 | i | -4 | 38
Next results follow:
SMILES | Yeast UUG start | MT1-MMP act inh | MT1-MMP act inh RFP | PABP FP inh | Env fusion inh | Rce1 inhib | eIF4H FP inh | CSC inhib | others
O=C1c2ccccc2-c2onc3ccc(NCCCn4ccnc4)c1c23 | x | x | x | 120 | x | i | 127 | 16 | eIF4H FP inh retest=-9;PABP FP inh retest=-5
Cc1cc(C(=O)COC(=O)c2cc(O)c3ccccc3c2O)c(C)n1CC1CCCO1 (stereo not drawn) | -13 | -9 | 13 | -4 | x | x | u | x
COc1ccc(NC(=O)CCCC(=O)OCC(F)(F)C(F)F)cc1 | -6 | 0 | 3 | 15 | -36 | i | -1 | -18
COc1ccc(C(=O)N2CCN(C)C(=O)[C@@H]2C)cc1OC1CCN(C(C)=O)CC1 | -6 | 1 | 3 | -6 | -8 | i | -8 | 1
CCOc1ccc2nc(N3CCC(C(=O)Nc4nnc(CC)s4)CC3)sc2c1 | -17 | -1 | 1 | 21 | -33 | i | 0 | -5
O=C(CCCc1ccccc1)Nc1cccnc1 | -23 | -1 | 3 | 6 | x | i | 12 | -5
COCCN(C(=O)C1CC1)c1nnc(-c2ccc(C)cc2)s1 | -8 | 3 | -3 | 8 | -58 | i | 4 | -10
COc1ccc(Br)cc1C(=O)Nc1ccccc1N1CCCC1 | -7 | 1 | -3 | x | 24 | x | x | 47
CC(C)(C)Sc1ccc(N)nc1 | -15 | -3 | -4 | 9 | x | i | -4 | x
Cc1ccc(-n2cccc2C(=S)N=P(N(C)C)(N(C)C)N(C)C)cc1 | -19 | -16 | -20 | 2 | 8 | i | 8 | -3
Cc1cccc(N(CC(=O)N2CCCCCC2)S(C)(=O)=O)c1C | -4 | -1 | -4 | 3 | 0 | i | 5 | -6
CCOC(=O)N1CCN(c2cc(C)c(C(C)=O)cc2F)CC1 | x | 3 | -1 | -9 | x | i | 3 | -8
O=C(NNC(=O)C(Cl)Cl)c1cnn(-c2ccccc2)c1C(F)(F)F | x | 1 | 5 | -5 | -11 | i | -6 | 10
Cc1ccc(OCC(=O)N/N=C\c2cn(Cc3ccccc3)c3ccccc23)cc1C | -14 | -1 | -5 | -12 | -8 | i | 7 | -5
COc1ccccc1C(=O)Nc1ccc(Oc2nnc(-c3ccc(C)cc3)c3ccccc23)cc1 | 2 | 1 | -1 | 0 | -10 | i | -4 | 14
CCC(C(=O)N/N=C/c1cccnc1)c1ccccc1 (stereo not drawn) | -14 | 5 | 5 | 10 | 4 | i | 2 | -2
COC(=O)Oc1ccc(/C=N/NC(=O)CSCc2ccccc2Br)cc1OC | x | 7 | -13 | -6 | x | i | -7 | 2
COc1ccc(S(=O)(=O)/N=C2/NC(=O)/C(=C/c3ccco3)S2)cc1 | x | -23 | 9 | -5 | x | i | 92 | -3 | eIF4H FP inh retest=-5;PABP FP inh retest=11
Cc1ccc(SCC(=O)NCCCc2ccccc2)cc1 | -7 | 3 | 2 | -11 | 4 | i | -7 | -4
COc1cccc(NC(=O)CN(C)C(=O)c2ccc3c(c2)S(=O)(=O)N=C2CCCCCN23)c1 | x | 1 | 1 | x | -4 | i | x | 10
COc1cc2c(C(=O)NCCCN3CCN(c4cccc(Cl)c4)CC3)cn(C)c(=O)c2cc1OC | -5 | 5 | 7 | -11 | -111 | i | -18 | -12
Cc1ccc(S(=O)(=O)N=N/C=C2\C=CC=CN2O)cc1 | -21 | -2 | 4 | x | 8 | x | x | x

This is a subset; the hit share may differ from the screen's.
